From PubChem BioAssay
D2 agonist: activates the human D2 dopamine receptor | P14416 | DiscoveRx PathHunter D2 beta-arrestin, luminescence, 90 min; 100% = 57 uM dopamine signal | activation, % (no concentration beside the values) | actives 0.084% (n = 360,000); in the data active = activation above about 40%; inconclusive = about 15% to 40%; inactive = below about 15%; also: compound concentration not given in the record; the text of the record calls up to 30% inactive
Target sequence (P14416 whole entry, looked up): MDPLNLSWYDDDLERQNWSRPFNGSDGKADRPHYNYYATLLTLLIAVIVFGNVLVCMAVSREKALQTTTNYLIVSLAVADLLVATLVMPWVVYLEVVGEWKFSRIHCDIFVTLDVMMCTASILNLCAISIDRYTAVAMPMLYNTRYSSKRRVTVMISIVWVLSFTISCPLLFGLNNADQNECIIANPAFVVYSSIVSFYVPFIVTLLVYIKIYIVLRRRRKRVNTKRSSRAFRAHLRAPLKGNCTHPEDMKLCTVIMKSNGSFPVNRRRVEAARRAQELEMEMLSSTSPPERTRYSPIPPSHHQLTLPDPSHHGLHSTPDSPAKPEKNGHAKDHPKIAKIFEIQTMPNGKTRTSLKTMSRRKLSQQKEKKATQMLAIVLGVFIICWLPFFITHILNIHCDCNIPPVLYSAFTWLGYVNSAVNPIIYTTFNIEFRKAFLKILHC
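Agonist mode: compounds alone added to overnight-plated D2 PathHunter cells for 90 min at 37 C, with 57 uM final dopamine (EC100) defining full response. Beta-arrestin recruitment detected by chemiluminescent reagent, read after 1 h at ambient temperature.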
TRPML1 blocker: inhibitors of human TRPML1 channel; Q9GZU1; activity change, negative = inhibition, % (test concentration not listed); TRPML1-inducible cells, Ca2+ dye fluorescence, FDSS; hits give low values; inhibition of EC80 agonist-evoked calcium signal; AID 624415; actives 0.02% (n = 390,000); in the data active means activity change below about -50%; inconclusive means about -30% to -50%; inactive means above about -30%;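 also: stimulus is agonist 54-4 at its EC80 concentration; % is scaled to controls: 0 for no effect and ±100 for the full control effect; compound concentration not given in the record; the text of the record puts the active cut at -80%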
Target sequence (Q9GZU1 whole entry, looked up): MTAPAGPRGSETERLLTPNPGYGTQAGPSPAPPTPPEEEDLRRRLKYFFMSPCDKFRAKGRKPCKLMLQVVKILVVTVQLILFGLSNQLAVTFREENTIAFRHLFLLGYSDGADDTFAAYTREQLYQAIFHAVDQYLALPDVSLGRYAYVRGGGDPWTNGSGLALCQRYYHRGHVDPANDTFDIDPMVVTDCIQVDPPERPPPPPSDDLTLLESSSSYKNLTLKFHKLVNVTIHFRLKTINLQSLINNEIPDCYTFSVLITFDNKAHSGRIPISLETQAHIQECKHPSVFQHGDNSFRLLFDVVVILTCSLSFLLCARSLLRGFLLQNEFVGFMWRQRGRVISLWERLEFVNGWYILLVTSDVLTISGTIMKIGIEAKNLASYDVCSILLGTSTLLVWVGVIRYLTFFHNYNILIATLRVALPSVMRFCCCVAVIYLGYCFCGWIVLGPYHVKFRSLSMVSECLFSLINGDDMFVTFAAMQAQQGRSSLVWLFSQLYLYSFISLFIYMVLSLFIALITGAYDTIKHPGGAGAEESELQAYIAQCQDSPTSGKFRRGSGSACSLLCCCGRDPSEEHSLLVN
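TRPML1-DL cells, Tet-induced overnight (~16 h, 37 °C) at 1,500 cells/well, were loaded with Ca8 no-wash dye plus quencher for 45-90 min at room temperature. Compounds were pinned during FDSS kinetic reading; agonist 54-4 at EC80 (4 uM final) then added.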
Six1-Eya2 inh: blocks human Six1 binding to Eya2; actives 0.56% (n = 360,000); Q15475+O00167; activity change, % (test concentration not listed); AlphaScreen GST-Six1/His-Eya2 binding, biochemical; hits give low values; control for the full effect not named in the record; in the data active = activity change below about -65%; inconclusive = about -30% to -65%; inactive = above about -30%; also: % is scaled to controls: 0 for no effect and ±100 for the full control effect; compound concentration not given in the record
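Compounds are tested against tagged Six1 and Eya2 proteins bridged by glutathione donor and nickel acceptor beads; after a one-hour incubation at 37 °C without light, AlphaScreen emission is recorded.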
CtBP-E1A blk: blocks the CtBP interaction with E1A | activity change, % (no concentration beside the values) | actives 0.49% (n = 340,000) | AID 651724 | AlphaScreen GST-E1A/His-CtBP binding, 1536-well; hits give low values; control for the full effect not named in the record; in the data active means activity change below about -65%; inconclusive means about -30% to -65%; inactive means above about -30%; also: % is scaled to controls: 0 for no effect and ±100 for the full control effect; compound concentration not given in the record
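AlphaScreen with 125 nM GST-E1A and 125 nM His-CtBP (5X stocks) in Tris pH 8.0, 300 mM NaCl, BSA, Tween 20, TCEP. Compounds preincubated 2 h at 37 deg C, then glutathione donor/nickel acceptor beads added for 1 h at 37 deg C in dark.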
PINK1 expr mod: PINK1 expression modulation; PINK1 immunofluorescence, high-content cytometry, 24 h; Potency, µM (titrated, usually from 76.6 µM), inactives show at the highest dose activation (PINK1 increase), hits mostly activators; actives 0.2% (n = 410,000); active = well fitted activation curve with a large enough effect; inconclusive = small, poorly fitted or top-dose-only effect; inactive = flat fitted curve, though single readings scatter; cell line not stated here;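 also: potency is read from the fitted curve at half-maximal effect; % of control where 0% means no effect; nearly all actives have a fitted effect of over 65% in size; a mitochondrial uncoupler was the plate control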
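Readout is PINK1 immunofluorescence, quantified alongside mitochondrial, cell and nuclear markers by laser-scanning microplate cytometry. Cells from a stable line were exposed to compound titrations (5 concentrations) for 24 hours, with CCCP controls.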
TRPML1 agonist: agonists of human TRPML1 channel; Q9GZU1; TRPML1-expressing cells, Ca2+ dye fluorescence, FDSS; host cell line not named in the record; reference of the full effect not given here; activation, % (test concentration not listed); actives 0.12% (n = 410,000); AID 624414; in the data active = activation above about 50%; inconclusive = about 30% to 50%; inactive = below about 30%; also: 0% is about no effect; the text of the record puts the active cut at 80%
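Cells: TRPML1-DL, 1X Tet inducer, ~16 h at 37 degrees C/5% CO2. Dye: ABD Ca8 no-wash + quencher, 45-90 min RT. Read: 10 s baseline, compound add, 110 s agonist phase; 54-4 EC80 (4uM final), 110 s antagonist phase.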
Active calls of the source: *; ? = inconclusive; nt = no result given; & = joins results of further samples; [ ] = another dose, or the depositor's remark. An unsorted share of the library; 1% or so of the library scored in one or more.

SMILES	D2 agonist	TRPML1 blocker	Six1-Eya2 inh	CtBP-E1A blk	PINK1 expr mod	TRPML1 agonist
Cc1ccccc1C(=O)Nn1cnc2ccccc2c1=O	0.3	7	5	4	2.0%	0.2
Cc1cccc(N(C)C(=O)c2cc(S(=O)(=O)N3CCCC3)cn2C)c1	-3.7	2&-9	2	-4	0.4%&-0.5%	-0.7&0.1
O=C(Nc1cc(C(F)(F)F)ccc1N1CCOCC1)c1ccc(Cl)nc1	-2.6	-13	5	0	-0.2%	1.7
C=CCN(C(=O)CC(NC(C)=O)c1ccccc1)c1nc(-c2ccc(S(C)(=O)=O)cc2)cs1 (configuration not stated)	3.6	-8	-5	-16	-0.2%	0.8
O=C(O)[C@@H]1CC(O)CN1C(=O)CCc1c[nH]c2ccccc12 (some centres not stated)	-2.0	-4	-2	-17	3.6%	0.3
N#C/C(=C\c1cccnc1)c1ccccn1	-5.8	nt	-5	4	1.0%	nt
CC(=O)Nc1cncc(-c2ccccc2F)n1	-4.1	98	-4	-1	0.1%	2.8
CCOc1ccc(N(CC(=O)Nc2cccc(OC)c2)S(=O)(=O)c2c(C)noc2C)cc1	0.6	18	0	2	1.1%	1.7
NC(=O)Cc1ccc2sc(-c3ccccc3)nc2c1	-4.9	-23	6	nt	-0.1%	-0.1
COc1cccc(-c2cn3c(n2)sc2cc(C(=O)NCCc4ccc(OC)c(OC)c4)ccc23)c1	nt	31	nt	nt	1.9%	-0.3
CSCC[C@H](NC(=O)COc1ccc(Cl)cc1)C(=O)N1CCC2(CC1)NCCc1[nH]cnc12	-1.5	-13	-3	nt	-0.2%	2.1
C[C@@H]1CN(C(=O)c2cc(COc3cccc(C(F)(F)F)c3)on2)C[C@H](C)O1	-1.3	13	11	6	6.7%	1.7
CS(=O)(=O)N(Cc1ccccc1)c1ccc(C(=O)N2CCN(c3cccc(Cl)c3)CC2)cc1	5.2	1	-9	-7	6.4%[38.3 µM]	2.0
CC(C)NS(=O)(=O)c1ccc(OCC(=O)N2CCc3ccccc3C2)cc1	2.1	17	-3	5	1.0%	0.1
O=C(c1cc(COc2ccc(F)cc2Cl)on1)N1CCc2sccc2C1	0.5	-2	9	16	-0.5%	0.0
CC(NCC(=O)Nc1ccccc1C(=O)NC1CC1)c1ccco1 (configuration not stated)	-1.0	4	-5	9	1.5%	0.2
CCC(C(=O)NCCCN1CCN(C)CC1)n1nc(C)n2c(cc3occc32)c1=O (configuration not stated)	-1.1	46	0	8	-1.3%	0.0
Cc1ccc(/C=N/NC(=O)CNC(=O)COc2ccc(Cl)cc2)o1	0.5	-16	-5	2	0.9%	1.6
COc1cccc(CNCc2cccc(Br)c2)c1OC	6.8	1	7	nt	0.9%	-0.9
O=C(NC(=S)N1CCCCCC1)c1ccc(Cl)cc1Cl	-3.1	-8	-9	0	-0.6%	-0.5
O=C(CCN1C(=O)[C@@H]2Cc3ccccc3CN2C1=O)N[C@H](C(=O)O)c1ccccc1	-7.8	6	4	nt	-1.6%	0.6
O=C(Sc1nnc(-c2ccccc2)o1)N1c2ccccc2Sc2ccccc21	10	?	?	-18	-1.6%	3.0
COCCn1c(C)cc(C(=O)COC(=O)Cc2n[nH]c(=O)c3ccccc23)c1C	-1.9	5	4	-28	4.7%	1.6
CCCn1c(N)c(C(=O)CSc2nc3ncc(Cl)cc3[nH]2)c(=O)[nH]c1=O	-2.8	15	6	-16	6.6%	0.2
Cc1c(CC(=O)NCCCCCC(=O)O)c(=O)oc2cc3occ(-c4ccccc4)c3cc12	0.2	-8	?	?	4.4%	-0.5
O=C(CSc1nnc(Cc2ccccc2)n1-c1ccccc1)N1CCOCC1	0.7	-4	1	5	9.4%[38.3 µM]	-0.3
CC(Oc1ccccc1)C(=O)N1CCC2(CC1)Oc1ccc(F)cc1C(=O)C21CC(c2ccccc2)=NO1 (configuration not stated)	0.7	17	-4	-26	0.4%	1.3
CCCCn1ccnc1C(=O)c1ccc(S(=O)(=O)N2CCCC2)cc1	-5.3	5	1	nt	3.4%	0.3
O=C(O)c1ccc(CN2C(=O)c3cccc4c([N+](=O)[O-])ccc(c34)C2=O)cc1	?	13	3	3	28%	2.6
CC1CCCC(NC(=O)COC(=O)/C=C/c2ccco2)C1C (configuration not stated)	5.8	39	0	0	-0.7%	0.3
O=C1CC(c2ccccc2)(c2ccccc2)c2ccccc21	-4.3	0	2	14	7.9%	1.6
CCN(C(=O)COC(=O)c1cccc(S(=O)(=O)NCc2ccccc2)c1)c1ccccc1	0.3	33	-7	4	-1.2%	3.5
O=C(NCCCN1CCC(Cc2ccccc2)CC1)C1CCN(S(=O)(=O)N2CCOCC2)CC1	0.2	-12	3	-1	8.6%	-0.2
CC(=O)c1ccc(N2CCN(c3ccc(S(=O)(=O)N4CCN(C)CC4)cn3)CC2)cc1	-3.3	-21	-1	8	-2.2%	0.1
Cc1ccc(-n2nnnc2SCc2nnc(-c3ccccc3Br)o2)c(C)c1	-2.2	9	-2	6	1.0%[38.3 µM]	0.1
Cc1ccccc1OCC(=O)NC(C)c1ccccc1 (configuration not stated)	-0.8	-6	-4	nt	0.1%	-0.2
COc1cc(NC(=O)CN(C)CCOc2ccccc2)c(C)cc1[N+](=O)[O-]	-5.1	17	-13	nt	4.3%	1.8
COc1ccccc1N(CCC#N)C(=O)CSc1nc(-c2ccccc2)cn1N	-3.3	30	-11	-7	0.2%	0.3
Cc1cc(C)c(S(C)(=O)=O)c(Oc2ccc(C(C)(C)C)cc2)n1	-5.0	-12	-2	2	?	1.6
S=C(Nc1ccc2c(c1)OCO2)N1CCN(Cc2ccco2)CC1	-3.4	-1	0	-15	2.3%	0.3
Cc1ccc(N=Nc2c(O)[nH]c3ccc(F)cc23)cc1	-15	-11	-5	0	8.5%	8.4
COC(=O)C(C(=O)OC)C(C)C(C(=O)OC)C(=O)OC	-2.3	-3	0	5	-0.1%	0.0
CCOCC(=O)Nc1nc2ccc(S(C)(=O)=O)cc2s1	0.1	4	4	0	0.6%	-0.4
Cc1ccc(NCc2nnc(SCC(=O)N(Cc3ccccc3)C(C)(C)C)o2)c(C)c1	1.6	6	-28	-5	5.1%[38.3 µM]	0.7
COc1cc(/C=N/NC(=O)c2nc(C)cc(C)n2)ccc1O	1.2	-13	-1	-4	-0.3%	-0.5
c1cnn(Cc2cnc(N3CCOCC3)s2)c1	1.0	0	4	3	4.4%	-0.7
CC(C)NC(=O)c1ccc(-c2ccc(Cl)c(C(F)(F)F)c2)o1	-2.4	2	2	6	28%[38.3 µM]	1.7
CCOc1ccc(N2CC(C(=O)NNC(=O)c3ccc(F)cc3)CC2=O)cc1 (configuration not stated)	-2.3	4	1	-3	-0.9%	-0.4
Nc1ccc(-c2nc3c(Cl)c(N)ccc3[nH]2)cc1	-1.0	-4	-20	-3	0.3%	2.2
CC(=O)CCSc1ncnc2sc(-c3ccccc3)cc12	4.5	10	-16	-14	-1.8%	0.3
COc1ccc2cc(C(=O)N3CCOCC3)sc(=O)c2c1OC	-0.4	1	5	19	3.3%	-0.6
O=S(=O)(NC(CO)Cc1ccccc1)c1ccc(Br)cc1F (configuration not stated)	1.6	28	10	6	-0.5%	-0.6
Cc1cccc(N2CC(C(=O)Nc3nnc(SCC(=O)Nc4nccs4)s3)CC2=O)c1 (configuration not stated)	-2.2	-16	7	-9	-2.2%	-0.2
Nc1nc(Sc2ccc([N+](=O)[O-])c3nonc23)c2[nH]cnc2n1	12	-6	?	3	6.6%	7.4
COc1cccc(CC(=O)Nc2ncc(C)s2)c1	-1.9	-4	3	0	0.4%	0.1
C[n+]1cn(CC(O)COCc2ccccc2)c2ccccc21 (configuration not stated)	-1.8	7	12	6	0.2%	-0.1
CC(Sc1oc(-c2cccs2)nc1S(=O)(=O)c1ccccc1)c1ccccc1 (configuration not stated)	nt	5	nt	nt	-0.3%	1.1
COc1cc(S(=O)(=O)NC2CCCC2)ccc1F	-3.0	-4	7	10	0.5%[38.3 µM]	2.0
N#CCc1nn(-c2ccc(F)cc2)c(N)c1C#N	-2.3	-4	-12	-12	-0.1%	-0.3
CC(C)Cn1c(N2CCN(C(=O)/C=C/c3ccccc3)CC2)nc2ccccc21	-0.6	13	-15	0	-0.7%	3.7

Other compounds.
SMILES	D2 agonist	TRPML1 blocker	Six1-Eya2 inh	CtBP-E1A blk	PINK1 expr mod	TRPML1 agonist
COc1ccc(CN2CCN(Cc3ccc(C)cc3)C(CCO)C2)cc1OC (configuration not stated)	-1.4	0	2	0	0.2%	-0.2
O=C(Nc1ccc(N2CCOCC2)cc1)C1CCN(S(=O)(=O)c2ccc3c(c2)OCCO3)CC1	6.6	3	2	-17	-1.2%	1.3
COC(=O)c1c(NC(=O)C2CCCO2)sc2c1CCC2 (configuration not stated)	-0.7	-20	-5	2	-1.0%	0.3
Cc1ccc2[nH]c(=O)c(CNC(C)(C)C)cc2c1	-2.9	-9	2	-1	-0.8%	0.5
CC1=C(C)CC(C(=O)NCCCN2CCCC2=O)C(C(=O)O)C1 (configuration not stated)	10	24	2	10	1.6%	0.2
Cc1cccc(Nc2ncnc3c2cnn3C)c1C	nt	-11	nt	nt	1.0%	-0.3
COC(=O)c1onc(-c2c(OC)cc(OC)cc2OC)c1C(=O)OC	-2.2	9	1	10	-0.4%	-0.7
COc1ccc(N2CCN(C(=O)CCc3ccc(S(=O)(=O)NC(C)C)cc3)CC2)cc1	1.2	13	4	19	-6.6%[38.3 µM]	-0.6
CCOc1ccc(CNC(=O)c2cnc3sc(N4CCOCC4)nn3c2=O)cc1	nt	12	nt	nt	-0.7%	0.7

Part of the list above in order of molecular weight, rising:
SMILES	D2 agonist	TRPML1 blocker	Six1-Eya2 inh	CtBP-E1A blk	PINK1 expr mod	TRPML1 agonist
COc1cc(S(=O)(=O)NC2CCCC2)ccc1F	-3.0	-4	7	10	0.5%[38.3 µM]	2.0
COCCn1c(C)cc(C(=O)COC(=O)Cc2n[nH]c(=O)c3ccccc23)c1C	-1.9	5	4	-28	4.7%	1.6
O=C(Sc1nnc(-c2ccccc2)o1)N1c2ccccc2Sc2ccccc21	10	?	?	-18	-1.6%	3.0
Cc1ccc(NCc2nnc(SCC(=O)N(Cc3ccccc3)C(C)(C)C)o2)c(C)c1	1.6	6	-28	-5	5.1%[38.3 µM]	0.7
Cc1c(CC(=O)NCCCCCC(=O)O)c(=O)oc2cc3occ(-c4ccccc4)c3cc12	0.2	-8	?	?	4.4%	-0.5
Cc1cccc(N2CC(C(=O)Nc3nnc(SCC(=O)Nc4nccs4)s3)CC2=O)c1 (configuration not stated)	-2.2	-16	7	-9	-2.2%	-0.2
C=CCN(C(=O)CC(NC(C)=O)c1ccccc1)c1nc(-c2ccc(S(C)(=O)=O)cc2)cs1 (configuration not stated)	3.6	-8	-5	-16	-0.2%	0.8
